Source: PubChem
Calb biofilm kill – clotrimazole potentiators killing C. albicans biofilm, primary screen, 4-compound mixtures. C. albicans biofilm persisters + clotrimazole, fluorescence viability; primary screen in compound mixtures of four per well. inhibition, % at 7.6 µM. 120,000 tested, 0.02% active. AID 1242, 2008;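 active = inhibition above 30.3% in the primary screen of four-compound pools, then above 30% when the compound was retested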;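 also: compounds exposed to preformed 24 h biofilms for 48 h; the number belongs to the whole pool; some results filed as inactive read as strong as hits; inactives centre near 12; 0% = biofilm with clotrimazole alone and 100% = kill control; retested singly at about 60 µM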
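Test system: C. albicans CAF4-2 wild-type biofilms; buffer or medium: RPMI/MOPS medium, pH 7.0; schedule: 24 h biofilm formation, then 48 h compound exposure, 37 °C; detection: Alamar Blue fluorescence; measure: percent inhibition of biofilm viability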
Numbers without * were called inactive.

SMILES	Calb biofilm kill
c1cc(-c2sc(-c3ccncc3)c(-c3ccncc3)c2-c2ccncc2)ccn1	24
CSc1ccccc1NC(=O)N1CCCC(C(=O)c2ccc3c(c2)OCO3)C1 (centres undefined)	10
COc1ccc(CCN2C(=O)CC(NC34CC5CC(CC(C5)C3)C4)C2=O)cc1OC (centres undefined)	15
COc1ccccc1Oc1cc(-n2nc(C)cc2C)ncn1	21
N#CC1=C(N)C2=CCCC[C@H]2[C@H](c2ccc(Br)cc2)C1(C#N)C#N	15
COc1cccc(/C=N/NC(=O)c2ccc([N+](=O)[O-])cc2Cl)c1O	4
O=C(NNC(=O)C1CC(c2cccs2)=NO1)NC1CCCCC1 (centres undefined)	12
Cn1cccc1C(=O)OCC(=O)N1CC(=O)Nc2ccccc21	2
CC1=NN(C(=O)COc2cc(C)ccc2C(C)C)C(O)(c2ccccc2)C1 (centres undefined)	30
Cc1ccc2nc3c(c(Nc4ccc5c(c4)OCCO5)c2c1)CCC3	10
Cc1ccc(/C=C2/NC(=O)N(Cc3ccccc3F)C2=O)s1	10
CC(=O)Nc1ccc(Cc2nc3ccccc3[nH]2)cc1	27
NC(=O)COC(=O)C12CC3CC(CC(O)(C3)C1)C2	14
O=C(CCNS(=O)(=O)c1cccc2nsnc12)NCc1ccc(F)cc1	12
CC(C)c1nc2sc3c(=O)[nH]c(=S)[nH]c3c2c2c1CCC2	3
CCOC(=O)C1CCN(C(=O)COc2ccc(N(C)S(=O)(=O)c3ccc(C)cc3)cc2)CC1	1
Cc1ccc(NC(=O)CSc2ncn[nH]2)cc1S(=O)(=O)N1CCOCC1	8
Cc1ccc(-c2nnc(CCC(=O)N(C)Cc3nccs3)o2)s1	0
COc1ccccc1NC(=O)c1cc2c(s1)-c1ccccc1S(=O)(=O)C2	21
Cc1ccc(NS(=O)(=O)c2ccc3[nH]c(=O)c(=O)[nH]c3c2)cc1Cl	9
C=CCn1c(C)cc(C(=O)COc2ccc(S(=O)(=O)N3CCCC3)cc2[N+](=O)[O-])c1C	16
COc1cc(/C=N/Nc2ccc([N+](=O)[O-])cc2S(=O)(=O)N2CCOCC2)cc(OC)c1OC	21
CCOC(=O)c1sc(NN=C(C(=O)OC)C(=O)OC)c(C(=O)OCC)c1C	12
O=C(Nc1ccc(Cl)cc1Cl)c1ccc(-c2ccccc2)cc1	18
Cc1nn(-c2ccccc2)c(C)c1/C=N/NC(=O)CSc1nc2ccccc2c(=O)n1-c1ccccc1	3
O=C1ON=C(c2ccccc2)/C1=C/c1ccc(-c2ccccc2[N+](=O)[O-])o1	5
Cc1cccc(N=Nc2c(C)[nH]n(-c3ccccc3)c2=O)c1	-4
CSC(=S)N/N=C/c1c[nH]c2ccccc12	11
CCN(CC)c1ccc(/C=N/n2c(-c3ccccc3Br)n[nH]c2=S)cc1	10
CCNC(=O)c1sc2cc(C)ccc2c1Cl	10
COC(=O)c1cn(NC(=O)/C=C/c2ccc(OC)c(OC)c2)c(=O)c2ccccc12	15
C#CCOCCOCCOCCNc1nc(N2CCN(C(=O)[C@H](C)n3cc(CCCN=C(N)N)nn3)CC2)nc(N2CCN(C(=O)[C@H](C)n3cc(CCCN=C(N)N)nn3)CC2)n1	9
CN(C)S(=O)(=O)N(CC(=O)NCCSCc1ccc(Cl)cc1)c1ccccc1	0
O=C(COC(=O)/C=C/c1ccc([N+](=O)[O-])cc1)NCc1ccc2c(c1)OCO2	7
CCOc1ccc(Nc2nc3cc(S(=O)(=O)CC)ccc3o2)cc1	9
CC(=O)N1CCc2cc(S(=O)(=O)CCC(=O)N3CCN(C(=O)c4ccco4)CC3)ccc21	-1
COc1ccc(C2NC(Cc3ccccc3)(C(=O)O)C3C(=O)N(c4ccccc4OC)C(=O)C23)cc1 (centres undefined)	16
COc1cc2c(cc1OC)/C(=C/c1ccc(Cl)cc1)C(=O)OC2	9
CC1Cc2ccccc2N1C(=S)NC(=O)c1cccc(Br)c1 (centres undefined)	14
COc1ccc(/C=C/C(=O)OCc2csc(-c3ccccc3)n2)cc1OC	20
CN1C(=S)SC(N2OC3C(=O)N(c4ccccc4)C(=O)C3C2c2ccc(Cl)cc2)C1(C)C (centres undefined)	31
O=C(OCC(=O)c1ccc(Cl)s1)c1ccc2ccccc2n1	4
O=C(CS(=O)(=O)c1c[nH]c2ccccc12)N1CCCCCC1	12
O=C(CCc1ccccc1)Nc1cc2c(cc1Cl)OCCO2	-22
CN(CC(O)COc1c(F)cc(Br)cc1F)C1CCCCC1 (centres undefined)	9
Cc1cc(C)nc(SCC(CSc2nc(C)cc(C)n2)C(=O)O)n1	10
Cc1cc(N2CC(C)OC(C)C2)nc2ccccc12 (centres undefined)	14
COC(=O)c1nc2n(n1)C(c1ccc([N+](=O)[O-])cc1)C(C(=O)Nc1ccc(Cl)cc1)=C(C)N2 (centres undefined)	11
Cc1cccc(C)c1OCc1n[nH]c(=S)n1-c1ccccc1	6
COc1ccc(S(=O)(=O)c2nnn(-c3cccc(Cl)c3)c2N)cc1	28
(more compounds)
SMILES	Calb biofilm kill
CN(C)c1ccc(NC(=O)Nc2cccc3ccccc23)cc1	23
O=C(NCc1nc2ccccc2[nH]1)C1=C[C@@H](c2csc3ccccc23)C[C@@H](OCCCCO)O1	19
Cc1nc(Nc2ccc(S(=O)(=O)N3CCCCC3C)cc2)c2nnn(Cc3ccccc3)c2n1 (centres undefined)	9
CCOC(=O)c1ccc(NC(=S)Nc2ccccc2)cc1	5
O=C(O)c1ccc(-n2cncn2)c([N+](=O)[O-])c1	11
O=C(NN1C(=O)/C(=C/c2ccc(O)c([N+](=O)[O-])c2)SC1=S)c1ccccc1Cl	14
CCOc1ccc(-n2c(SCc3cc(=O)oc4cc(C)ccc34)nnc2-c2cccnc2)cc1	4
Cn1c(CNC(=O)c2ccco2)nnc1SCC(=O)Nc1c(F)cc(F)cc1Br	10
O=C(c1ccc(CN2CCc3ccccc3C2)cc1)N1CCN(c2ccccc2)CC1	8
COc1cccc(NC(=O)CC2S/C(=N\S(=O)(=O)c3ccccc3)N(c3ccccc3)C2=O)c1 (centres undefined)	10
OCCC1CN(Cc2nc3ccc(F)cc3[nH]2)CCN1C1CCCC1 (centres undefined)	17
O=C(O)c1ccc(C[n+]2c(-c3ccccc3)csc2Nc2ccccc2)cc1	8
CCn1c(SCC(=O)Nc2cc(C)nn2-c2ccccc2)nnc1-c1cccs1	14
CCCCn1c(O)c(N=Nc2ccccn2)c2ccccc21	3
CCOC(=O)c1ccc(NC(=S)N2CCN(c3ccc(N4CCOCC4)nn3)CC2)cc1	7
CCOC(=O)C1=C(Nc2ccccc2)CC(C)(O)C(C(=O)OCC)C1c1ccccc1 (centres undefined)	-2
O=c1c(N=Nc2ccc(O)cc2)c(-c2ccccc2)[nH]n1-c1ccc([N+](=O)[O-])cc1	9
O=C(O)C1CCC(CN(Cc2cccc(Br)c2)C(=S)Nc2ccccc2F)CC1 (centres undefined)	8
O=C(/C=C/c1cccs1)c1cc(Br)ccc1OC(=O)N1CCOCC1	17
C/C=N\NC(=O)CNC(=O)CNC(=O)c1ccccc1	4

2 of the compounds above, as a markdown table.
| Compound | Calb biofilm kill |
| --- | --- |
| CCCCn1c(O)c(N=Nc2ccccn2)c2ccccc21 | 3 |
| CCOC(=O)c1ccc(NC(=S)N2CCN(c3ccc(N4CCOCC4)nn3)CC2)cc1 | 7 |

Further compounds:
SMILES	Calb biofilm kill
CCCOc1ccc(N2C(=O)CC(N(CCOC34CC5CC(CC(C5)C3)C4)C(C)=O)C2=O)cc1 (centres undefined)	12
CCCS(=O)(=O)Nc1c(C(=O)OC)[nH]c2ccccc12	6
COc1c(Br)cc(Br)cc1/C=C1/C(=O)N=C(N)N1C	13
COc1ccnc(Oc2ccc(F)cc2)c1C(=O)N/C=N/OCc1cccc(F)c1	16
Cc1ccc(-c2n[nH]c(=S)n2/N=C/c2c(C)nn(-c3ccccc3)c2C)cc1	9
Cc1ncsc1CCOC(=O)c1ccccc1	20
O=c1c(Cl)c(Nc2cccc(Cl)c2)cnn1-c1nc2ccccc2s1	16
O=C1CC(N2CCSCC2)C(=O)N1c1ccc(F)cc1 (centres undefined)	21
COc1ccc(CC2(CO)CCN(Cc3cccc4nccnc34)CC2)cc1	6
Cc1ccc(CNC(=O)CSCc2ccccc2)cc1	54
O=C(NCC1CC1)c1onc(CSc2ccncc2)c1C(=O)NCC1CC1	12
Fc1ccc(N2CCN(Cc3ccccn3)CC2)cc1	5
Cc1cc2c(cc(C(=O)N3CCC(C(=O)NC4CCCC4)CC3)n2Cc2c(F)cccc2Cl)o1	5
Cn1nc(C(F)(F)F)cc1-c1ccc(S(N)(=O)=O)s1	14
O=C(COc1ncnc2ccccc12)Nc1ccc(S(=O)(=O)N2CCOCC2)cc1	12
CCOC(=O)c1c(/N=C/c2cc(OC)cc([N+](=O)[O-])c2O)sc(C)c1C	3
COc1ccc(C)cc1Nc1nc(-c2c[nH]c3ccccc23)cs1	-1
OC[C@@H](O)[C@H](O)C(/C=N/Nc1ccccc1)=N\Nc1ccccc1	19
COc1cc(C(=O)Nc2nnc(CC(C)(C)C)s2)c([N+](=O)[O-])cc1OC	15
O=C(CSc1nnc(C2COc3ccccc3O2)o1)Nc1ccc(F)cc1Cl (centres undefined)	5
COc1ccc(C(=O)O/N=C(\N)Cc2ccc(Cl)cc2Cl)cc1OC	19
Cc1nn(-c2ccccc2)c(C)c1/C=N/NC(=O)CSc1nnc(SCc2ccc(Cl)cc2)s1	24
CN(CC#CC(O)(c1ccccc1)c1ccccc1)C(C)(C)C	1
CC(C)(OC(=O)NC(=O)C(F)(F)F)C(C)(C)OC(=O)NC(=O)C(F)(F)F	33
CCCn1c(SCC(=O)OCC)nc(C(F)(F)F)cc1=O	13
O=C(NCc1ccccn1)c1ccc(Cn2cc(C(F)(F)F)ccc2=O)cc1	5
CCCOc1ccc(N2C(=O)CC(SC(=NCC)NCC)C2=O)cc1 (centres undefined)	11
CC(C)(C)S(=O)(=O)c1cnc(N2CCOCC2)nc1N	10
CCCCNC(=O)CCCCC(=O)N/N=C/c1ccccc1Cl	14
Cc1ccc2c3c([nH]c2c1)C(=O)CC(C)(C)S3	23
O=S(=O)(c1ccc(F)c(F)c1F)N1CCN(C(=S)Nc2ccccc2)CC1	18
Cc1csc(NC(=O)/C=C/c2ccc3c(c2)OCO3)n1	10
Cc1cccc(C)c1NC(=S)N(Cc1ccco1)C1CCN(C(C)C)CC1	13
O=C(NCc1ccccc1)[C@H]1C[C@@H]1[C@H](NP(=O)(c1ccccc1)c1ccccc1)c1ccccc1	9
CS(=O)(=O)N(CC(=O)NC1CCCC1)c1ccc(Oc2ccccc2)cc1	11
CC(C)(C)c1ccc(C(=O)NC(=S)NCC2CCCO2)cc1 (centres undefined)	0
CC(=O)c1ccc(NC(=O)CSc2nc(N)c3cc4c(nc3n2)CCCC4)cc1	12
CN=C1CC(C)(C)CC(=O)/C1=C(/O)CCCN1C(=O)c2ccccc2C1=O	10
CCOC(=O)c1ccc[n+](CC(=O)c2ccc(OC)cc2)c1	11
O=C(O)c1cc(-c2ccc(/C=N/Nc3ccc([N+](=O)[O-])cn3)o2)ccc1Cl	29

Some of the entries so far, with bars between the fields.
compound | Calb biofilm kill
CN(CC#CC(O)(c1ccccc1)c1ccccc1)C(C)(C)C | 1
CC(C)(OC(=O)NC(=O)C(F)(F)F)C(C)(C)OC(=O)NC(=O)C(F)(F)F | 33
CCCn1c(SCC(=O)OCC)nc(C(F)(F)F)cc1=O | 13
O=C(NCc1ccccn1)c1ccc(Cn2cc(C(F)(F)F)ccc2=O)cc1 | 5
CCCOc1ccc(N2C(=O)CC(SC(=NCC)NCC)C2=O)cc1 (centres undefined) | 11
CC(C)(C)S(=O)(=O)c1cnc(N2CCOCC2)nc1N | 10
CCCCNC(=O)CCCCC(=O)N/N=C/c1ccccc1Cl | 14
Cc1ccc2c3c([nH]c2c1)C(=O)CC(C)(C)S3 | 23
O=S(=O)(c1ccc(F)c(F)c1F)N1CCN(C(=S)Nc2ccccc2)CC1 | 18
Cc1csc(NC(=O)/C=C/c2ccc3c(c2)OCO3)n1 | 10
Cc1cccc(C)c1NC(=S)N(Cc1ccco1)C1CCN(C(C)C)CC1 | 13
O=C(NCc1ccccc1)[C@H]1C[C@@H]1[C@H](NP(=O)(c1ccccc1)c1ccccc1)c1ccccc1 | 9
CS(=O)(=O)N(CC(=O)NC1CCCC1)c1ccc(Oc2ccccc2)cc1 | 11
CC(C)(C)c1ccc(C(=O)NC(=S)NCC2CCCO2)cc1 (centres undefined) | 0
CC(=O)c1ccc(NC(=O)CSc2nc(N)c3cc4c(nc3n2)CCCC4)cc1 | 12

New compounds follow.
SMILES	Calb biofilm kill
O=C(CN1CCOCC1)Nc1ccc([N+](=O)[O-])cc1Br	14
Cc1nc(SCCO)c([N+](=O)[O-])[nH]1	8
O=C(Nc1cc(-c2ccccc2)[nH]n1)c1ccccc1F	9
CN(C)CCNC(C(=O)Nc1cc(Cl)cc(Cl)c1)c1ccccc1 (centres undefined)	9
COc1ccc(C(CNC(=O)c2ccc(S(=O)(=O)N3CCCC3)cc2)N2CCOCC2)cc1 (centres undefined)	27
NNc1nc2ccc(Cl)cc2s1	2
CC(C)NCCCCOc1ccc(Br)cc1Cl	4
Cc1ccc2nc(C)cc(C(=O)OCC(=O)Nc3cccnc3Cl)c2c1	8
O=C(O)c1cccc(N/N=C/c2cn(-c3ccccc3)nc2-c2cccs2)c1	14
COc1cccc(C2c3[nH]c4ccccc4c3CCN2Cc2cnn(C)c2)c1 (centres undefined)	13
O=C(CN1CCN(Cc2ccccc2)CC1)N/N=C/C=C/c1ccccc1[N+](=O)[O-]	10
CCOc1ccc(-n2c(SCC(=O)NC3CCS(=O)(=O)C3)nnc2-c2cccnc2)cc1 (centres undefined)	12
O=c1cc(O)c2c(=O)n(-c3ccccc3)c3c(c2o1)CCCCC3	19

Not all compounds are listed. The share of hits here may be higher or lower than overall.
